RN4220 kill: S. aureus RN4220 growth inhibition | OD600, 16 h | inhibition, % (no concentration beside the values) | hit rate 0.33% among 330,000 | AID 1259311;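 active = z-score of -3 or lower and OD600 up to 0.18 on both plates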;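 note: plate controls were untreated cells for no effect and reference antibiotic for full effect; stock transfer was 100 nL into about 80 µL; one replicate is shown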
Autofluor counter: compound fluorescence in toxin protease inhibitor counterscreen; compound autofluorescence counterscreen, microsphere flow cytometry; active compounds read high; fluorescence intensity (test concentration not listed); hit rate 3.1% among 360,000; AID 624483;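 active = at least 3 SD above the mean of all compounds, about 16000 in these data; inconclusive = too few beads counted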;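 note: 100 nL of 1 mM stock went into each well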
PrP UTR inh: suppresses PrP 5' UTR mRNA reporter expression; cell-based PrP 5' UTR mRNA reporter, plate reader; hit rate 0.35% among 340,000; inhibition, % (concentration not given with the values);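 active = every replicate at 50% or more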;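 note: 0 = median of the neutral control wells; tested in H4 reporter cells; numbers are from one replicate; inactives centre near -14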
BJeLR lethal: BJeLR cell viability loss; BJeLR (HRASV12) viability, CellTiter-Glo ATP luminescence, 48 h; reference of the scale not given here; inhibition, % (concentration not given with the values); hit rate 0.17% among 300,000; AID 1554;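 active = replicate mean above 50%; inconclusive = above 50% but judged a plate artefact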;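 note: 50 nL library stock added to about 25 µL; numbers are from one replicate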
Sa ugtP lethal: growth inhibition of S. aureus ugtP deletion strain; S. aureus RN4220 ugtP deletion, OD600 growth, 16 h; some inactives read as strong as hits; hit rate 0.54% among 330,000; AID 1259309; growth inhibition, % (concentration not given with the values);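 active = z-score under -3 and OD600 up to 0.15 on both plates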;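 note: plate controls were untreated wells for no effect and antibiotic for full effect; wells of about 80 µL received 100 nL stock; the first replicate is given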
Mtb hypoxia inh: Mtb hypoxia fluorescent reporter inhibition; hit rate 0.1% among 300,000; AID 1159583; M. tuberculosis hypoxia-regulated fluorescent reporter, fluorescence; fluorescence inhibition, % (test concentration not listed);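 active = 35 to 45% if threefold the growth effect, above 45% if 1.5-fold the growth effect; inactive = the rest, general growth blockers included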;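 note: wells of about 50 µL received 100 nL stock; 0% = vehicle wells and 100% = reference inhibitor wells; whole bacteria with a GFP reporter of the hypoxia response; strong numbers were not always called active; many hits fall short of the cut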
Mtb hypoxia inh growth: second read-out of Mtb hypoxia inh, no call of its own (marks repeat the call); growth inhibition, %; measured here: M. tuberculosis growth (absorbance);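 0% = vehicle and 100% = reference antibiotic; read after six days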
Numbers without * were called inactive; ? = inconclusive; . = no result given.

SMILES | RN4220 kill | Autofluor counter | PrP UTR inh | BJeLR lethal | Sa ugtP lethal | Mtb hypoxia inh | Mtb hypoxia inh growth
COc1cccc(CSc2nc3ccccc3cc2C=O)c1 | -6.4 | 4944 | -2.2 | 57.8* | 97.8* | . | .
CCCOc1ccc(CCC(=O)NN=Cc2ccco2)cc1 | 0.5 | . | . | . | -0.2 | 4.3 | 8.0
Cc1ccc(C(=O)Nc2ccc3c(c2)CCC3)cc1 | 8.7 | 2329 | 26.9 | 11.2 | 5.8 | . | .
Cc1ccc(NC(=O)C2CCN(S(=O)(=O)c3cccc(C(F)(F)F)c3)CC2)nc1 | 0.3 | ? | 2.2 | 8.4 | -3.2 | 4.5 | 10.3
CCCC(=O)N1CCN(c2ccc(NC(=O)c3sc4ccccc4c3Cl)cc2)CC1 | 1.0 | 2805 | -10.7 | 6.0 | -6.6 | 3.2 | 7.4
O=c1c2ccccc2nc(COc2ccccc2)n1N=Cc1ccc(O)cc1O | 7.6 | . | . | . | -11.6 | 4.5 | -3.1
Cc1c(Cl)cnc(NC(=O)COC(=O)c2cccc(S(=O)(=O)N3c4ccccc4CC3C)c2)c1Cl (stereo not drawn) | 1.4 | 2638 | -31.9 | -20.2 | -7.7 | -1.1 | 6.6
O=C(NCCc1ccccc1)c1ncn[nH]1 | 2.6 | 20498* | -0.4 | 6.6 | -1.9 | 7.0 | 7.7
CC(=O)N(CN1C(=O)c2ccccc2C1=O)c1ccc2c(c1)oc1ccccc12 | 5.6 | 2074 | 1.5 | -10.8 | 11.3 | -0.8 | 2.0
Cc1ccc(NC(=O)/C(=C/C=C/c2ccccc2)NC(=O)c2ccccc2)cc1 | -1.2 | 2648 | -18.4 | -15.9 | 6.7 | -5.9 | -4.2
O=C(Nc1ccc2c(c1)CCC2)c1cccc(S(=O)(=O)Nc2ccccc2Cl)c1 | 4.4 | 2481 | -17.0 | -10.8 | -18.6 | -0.2 | 11.3
O=C1NC(=O)c2cc(Br)cc3cccc1c23 | -0.3 | 4193 | -30.9 | 3.9 | -1.8 | 3.9 | 6.0
O=Nc1c(O)n(Cc2cccc(C(F)(F)F)c2)c2ccccc12 | 1.8 | 1924 | -11.0 | -2.3 | -22.9 | -5.3 | -10.2
COc1ccc(C(C(=O)NC2CCCC2)N(C(=O)c2ccco2)c2ccccc2C(C)=O)cc1OC (stereo not drawn) | 3.7 | 3899 | -18.2 | -2.5 | -0.9 | 16.3 | 1.6
CSC1=NCCN1CCOc1ccccc1 | 3.7 | 4726 | -15.1 | -1.9 | 3.6 | 1.7 | 1.1
O=[N+]([O-])c1cccc2ccc(/C=C/c3ccc(Cl)cc3)nc12 | . | 7119 | -48.7 | -5.7 | . | . | .
O=C(O)CC1(CC(=O)Nc2ccc(Cl)cc2C(=O)c2ccccc2)CCCC1 | 2.4 | 6575 | -8.3 | 2.1 | -0.9 | 6.1 | 6.9
CC(=O)Nc1ccc(/C=C(\C#N)C(N)=O)cc1 | -2.3 | 3652 | -15.9 | -5.5 | -8.2 | 0.5 | -4.0
Cn1c(NC(=O)C2CC2)cc(=O)n(C)c1=O | 3.6 | 5874 | 7.6 | -9.8 | 10.8 | 2.0 | -2.5
COc1ccccc1NC(=O)COc1coc(CN2CCN(c3ccccc3)CC2)cc1=O | 4.3 | ? | -21.5 | -3.6 | 11.6 | 4.5 | -4.9
CSc1n[nH]c(N)c1S(=O)(=O)c1ccc(Cl)cc1 | 2.8 | 3849 | -1.4 | -1.4 | 7.0 | -5.4 | -3.0
N=c1n(Cc2ccccc2)c2ccccc2n1CC(O)c1ccccc1 (stereo not drawn) | 4.3 | 5810 | -16.7 | 5.1 | -12.4 | 2.1 | 12.6
CCOC(=O)/C=C/c1cnn(-c2ccccc2)c1 | 9.4 | 2532 | -73.1 | 1.9 | 6.6 | 0.5 | 1.3
O=C(c1oc(=O)c2ccccc2c1-c1ccccc1)N1CCOCC1 | -0.4 | 4811 | -20.1 | -1.8 | -5.0 | . | .
O=C(Cc1ccccc1)Nc1ccccc1Sc1ccccc1 | 6.6 | 11023 | 3.5 | -10.4 | -4.5 | 3.3 | 0.6

Additional entries.
SMILES | RN4220 kill | Autofluor counter | PrP UTR inh | BJeLR lethal | Sa ugtP lethal | Mtb hypoxia inh | Mtb hypoxia inh growth
COc1cccc(C2/C(=C(/O)c3ccc(C)cc3)C(=O)C(=O)N2Cc2ccco2)c1 (stereo not drawn) | 16.6 | 2683 | -5.1 | -2.3 | 8.2 | -0.1 | -3.8
Nc1nnnn1/N=C/c1ccccc1O | . | 3511 | -33.3 | -9.3 | . | . | .
O=C(NCCCN1CCCC1=O)Nc1ccc(Cl)cc1 | 1.1 | 8064 | . | -0.6 | -7.6 | 12.8 | 5.1
COc1ccc(S(=O)(=O)N2CC(C(=O)O)Oc3ccc(CC(=O)O)cc32)cc1 (stereo not drawn) | 6.1 | 4159 | -24.9 | -2.7 | 3.1 | 3.9 | 6.4
Cc1cc(C(=O)CN2C(=O)NC3(CCCCC3)C2=O)c(C)n1-c1ccc2c(c1)OCO2 | 5.0 | 2356 | -14.9 | 8.0 | -5.4 | -3.2 | 7.0
CN(C1=NS(=O)(=O)c2ccccc21)c1ccc(OC(=O)c2ccncc2)cc1 | 0.1 | 3309 | -28.9 | -1.3 | 4.2 | 2.7 | 2.5
CCCC(C(=O)Nc1nccs1)c1ccccc1 (stereo not drawn) | -2.3 | 2658 | -16.0 | -3.2 | 7.9 | . | .
COc1ccc(NC(=O)CSc2nnc(NC(=O)c3ccco3)s2)cc1 | -2.2 | 4105 | -32.5 | -10.2 | 5.8 | 9.5 | -0.2
CCOC(=O)C(=NNc1ccc(Cl)cc1)Sc1nnc(-c2ccc(OC)cc2)n1C | 26.2 | . | . | . | -9.6 | -10.4 | -5.8
COc1cccc(S(=O)(=O)Nc2ccc(C(=O)N3CCN(C(=O)c4ccco4)CC3)cc2)c1 | 6.8 | 18332* | -12.8 | 2.2 | -1.4 | 0.4 | 9.5
O=C(O)c1cccc(-c2ccc(C=NNc3nn[nH]n3)o2)c1 | 0.7 | . | . | . | -1.7 | -1.2 | 5.0
COc1ccc(/C=N\NC(=O)c2ccccc2Br)cc1COc1ccccc1 | . | 5242 | -1.3 | 2.3 | . | . | .
COc1ccc(C2(O)CCN(CC(=O)Nc3nccs3)CC2)c(OC)c1 | 2.6 | 7701 | -28.3 | 4.8 | -3.5 | 11.3 | 8.4
C=C1CCC[C@]2(C)C[C@H]3OC(=O)C(CNC(C)CC)[C@H]3CC12 (stereo partly drawn) | 0.9 | 3298 | -0.7 | -5.1 | -1.5 | -8.2 | -12.8
CC1CCN(S(=O)(=O)c2cccc(C(=O)N3CCN(c4ccc(F)cc4)CC3)c2)CC1 | -2.9 | 5850 | -7.4 | 3.1 | -3.7 | 4.8 | 16.2
COCCNC(=O)c1onc(CSc2ccccc2C)c1C(=O)O | 0.0 | 3637 | -14.2 | 1.1 | 0.4 | -3.9 | 5.8
Cc1ccnc(NC(=O)CC(NC(=O)c2ccccc2Cl)c2ccccc2)c1 (stereo not drawn) | 0.3 | 6143 | -67.6 | -1.5 | 3.6 | 0.8 | 4.9
CCCCC(CC)CNC(=O)C(=O)C1C(=O)Nc2ccccc21 (stereo not drawn) | 8.4 | 4193 | -1.2 | 0.2 | -4.5 | 15.7 | 2.0
COC(=O)CCC(=O)OC1(C)C(=O)C=C2C=C(C3CC3)N(Cc3ccco3)C=C2C1=O (stereo not drawn) | 2.5 | 3259 | -14.8 | -2.0 | -3.8 | 4.3 | 0.3
O=[N+]([O-])c1c(NCCCO)cc(SCc2ccco2)c2nonc12 | 13.3 | 2513 | -24.2 | -6.6 | -0.7 | 2.6 | 0.1
COc1ccc(OCc2nnc(SCC(=O)N(C)Cc3ccccc3)n2N)cc1 | 3.1 | 3555 | -25.6 | 2.0 | -2.2 | 0.9 | 2.9
CC1CCCN(c2sc(S(C)(=O)=O)nc2S(=O)(=O)c2ccc(Cl)cc2)C1 (stereo not drawn) | -0.6 | 4642 | -22.4 | -3.3 | 13.3 | -3.5 | -5.0
CC(=O)c1cccc(NC(=O)CCc2nnc3ccc(N4CCOCC4)nn23)c1 | 2.2 | 6071 | 5.7 | 0.5 | 5.3 | 4.6 | 14.1
COc1ccc(C(=O)NCc2nnc(SCC(=O)N3CCCCC3)o2)cc1OC | 0.7 | 4204 | -23.5 | -5.9 | 5.0 | . | .
COc1ccc(S(=O)(=O)NCC2CCC(C(=O)O)CC2)cc1 (stereo not drawn) | 4.1 | 3959 | -14.6 | -0.4 | 3.7 | 16.2 | -3.3

Following part:
SMILES | RN4220 kill | Autofluor counter | PrP UTR inh | BJeLR lethal | Sa ugtP lethal | Mtb hypoxia inh | Mtb hypoxia inh growth
COc1cc(/C=C/c2nc3ccccc3c(=O)[nH]2)cc(OC)c1OC | -0.6 | 3478 | -17.2 | -0.8 | 6.5 | -5.2 | 10.4
O=C(NC1CCN(C(=O)Nc2ccccc2Cl)CC1)c1cccc(F)c1 | 1.5 | 6143 | 11.7 | -2.2 | 5.0 | -0.3 | 7.1
Cc1cnc(NC(=O)CSc2nnc(C)n2N)s1 | 2.4 | 2597 | -11.3 | 7.2 | 6.4 | 2.4 | 4.2
CCN(c1ccccc1)S(=O)(=O)c1cc(C(=O)Nc2cccc(Cl)c2)ccc1F | -4.5 | 2434 | -24.3 | 8.1 | 9.0 | 8.9 | 3.0
CC(NC(=S)Nc1ccc(S(N)(=O)=O)cc1)c1ccc2c(c1)OCO2 (stereo not drawn) | 0.9 | 2422 | -7.4 | -4.1 | 1.8 | 1.2 | 2.3
Oc1ccccc1C=NNc1ccccc1 | 1.3 | . | . | . | 5.1 | 8.9 | 0.0
Cc1cc(C)n(C(=O)c2nn(C)c(C)c2[N+](=O)[O-])n1 | 7.0 | 15296 | -9.5 | -7.0 | 6.6 | 5.1 | 10.3
Nc1nonc1C(=O)NCCNC(=O)c1ccc(Cl)c(Cl)c1 | 0.4 | 3589 | -19.2 | -0.3 | 6.7 | 8.9 | 2.6
CC1(C)c2ccccc2N2CC(=O)N(CC(N)=O)C21C (stereo not drawn) | 5.9 | 7075 | -12.3 | 7.6 | 10.1 | 5.1 | -0.1
CC(C)c1ccc(S(=O)(=O)N2CCN(C(=O)n3ccnc3)CC2)cc1 | 3.3 | 2957 | 2.9 | . | 6.0 | 2.9 | 2.4
C=CCCC(=O)N1CCCC(C(=O)c2cccc(OC)c2)C1 (stereo not drawn) | 0.6 | 3995 | -25.4 | 1.7 | 9.4 | 15.1 | 1.0
O=C(NN1CCOCC1)c1ccccc1NS(=O)(=O)c1ccc(F)cc1F | 2.0 | 2990 | -9.1 | . | -0.3 | 3.3 | -1.7
O=C(Cn1ccc2ccccc2c1=O)NCCC(=O)N1CCN(C2CCCCC2)CC1 | -4.0 | 11318 | 4.7 | -7.4 | -8.0 | -7.2 | 8.3
Cc1cccc(C(=O)Oc2ccc(/C=N/NC(=O)Cc3ccc([N+](=O)[O-])cc3)cc2)c1 | . | 2077 | -15.9 | -0.9 | . | . | .
Cc1ccc(C(=O)N2CCN(c3ccc(NC(=S)NC(=O)Cc4ccccc4)cc3)CC2)cc1 | 6.4 | 22933* | -9.8 | 0.5 | 90.2* | . | .
COc1ccccc1OCC(=O)N1CCN(C(=O)COc2ccccc2OC)CC1 | 4.3 | 4033 | -21.2 | 2.2 | -4.7 | 7.7 | -2.3
Cc1ccc(N(C(=O)c2csnn2)C(C(=O)NC2CCCCC2)c2ccco2)cc1 (stereo not drawn) | 1.6 | 3136 | -4.5 | 9.3 | -0.2 | 0.7 | -1.3

Part of the list above in a different format:
Every second line gives: RN4220 kill | Autofluor counter | PrP UTR inh | BJeLR lethal | Sa ugtP lethal | Mtb hypoxia inh | Mtb hypoxia inh growth
> O=C(O)c1cccc(-c2ccc(C=NNc3nn[nH]n3)o2)c1
  0.7 | . | . | . | -1.7 | -1.2 | 5.0
> COc1cc(/C=C/c2nc3ccccc3c(=O)[nH]2)cc(OC)c1OC
  -0.6 | 3478 | -17.2 | -0.8 | 6.5 | -5.2 | 10.4
> O=C(NCCc1ccccc1)c1ncn[nH]1
  2.6 | 20498* | -0.4 | 6.6 | -1.9 | 7.0 | 7.7
> O=[N+]([O-])c1c(NCCCO)cc(SCc2ccco2)c2nonc12
  13.3 | 2513 | -24.2 | -6.6 | -0.7 | 2.6 | 0.1
> Cc1cnc(NC(=O)CSc2nnc(C)n2N)s1
  2.4 | 2597 | -11.3 | 7.2 | 6.4 | 2.4 | 4.2
> CSc1n[nH]c(N)c1S(=O)(=O)c1ccc(Cl)cc1
  2.8 | 3849 | -1.4 | -1.4 | 7.0 | -5.4 | -3.0
